Anaer choline gr = choline-fed anaerobic bacterial growth inhibition; Gram-negative bacterium anaerobic choline minimal medium, absorbance growth; hits give low values; many inactives read as strong as hits in the columns shown; AID 1963822; hit rate 0.2% among 55,000; calls only;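 active = growth z-score on choline under -2 at 7 or 20 h with little or no fall on glycerol, limits in tiers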;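 note: stock transfer was 300 nL into about 50 µL; the organism is E. coli; final concentration not given here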
Anaer choline gr early = recorded beside Anaer choline gr, whose call it bears; z-score; measured here: choline growth z-score, timepoint 1;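 score of optical density at 7 h as mean of two plates; lower means less growth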
* hit, by the source's call; & = joins results of further samples. Some of the compounds tested; count on the stated rates, not on these rows.

For Cc1ccc(CNC(=O)CCc2nc(N3CCCCC3)c3c(-c4ccc(F)cc4)noc3n2)cc1 the results were Anaer choline gr inactive and Anaer choline gr early 0.79.
Screening Cc1cc(C2CCCN2Cc2ccccc2O)no1 (stereo not given) returned Anaer choline gr inactive and Anaer choline gr early -1.57.
For Cc1nc(-c2cc(S(=O)(=O)Nc3cccc(F)c3)c(C)s2)sc1C the results were Anaer choline gr inactive and Anaer choline gr early 1.89.
For O=S(=O)(c1cc(-c2nnc(C3CCC3)o2)co1)N1CCC(N2CCCCC2)CC1 the results were Anaer choline gr inactive and Anaer choline gr early 0.34.
Screening O=C1Nc2cc(Cl)ccc2Oc2ccc(S(=O)(=O)N3CCc4ccccc4C3)cc21 returned Anaer choline gr inactive and Anaer choline gr early -1.57.
`C=Cc1ccc(COC(=O)c2nnn(-c3ccc(C)c(C)c3)c2C)cc1` gave Anaer choline gr inactive and Anaer choline gr early 1.13.
For CCOc1ccc(-c2csc(Cc3nc(-c4ccc(OC)cc4)no3)n2)cc1 the results were Anaer choline gr inactive and Anaer choline gr early 0.81.
For COc1cccc(C(=O)Nc2ccccc2SCc2nnc(-c3ccccc3)o2)c1 the results were Anaer choline gr inactive and Anaer choline gr early 0.2.
Cc1ccc(S(=O)(=O)N2CC(C)C(=O)Nc3ccccc32)cc1 (stereo not given) was read as Anaer choline gr inactive and Anaer choline gr early -1.35.
`CC(C)c1nnc2c(SCc3ccccc3)nc3ccccc3n12` gave Anaer choline gr inactive and Anaer choline gr early 1.07.
Screening CCCC(=O)Nc1ccc(S(=O)(=O)N2CCC(c3nc4ccccc4s3)CC2)cc1 returned Anaer choline gr inactive and Anaer choline gr early 2.41.
`O=C(O)c1cc(N2CCN(c3ccccn3)CC2)nc2ccc(NS(=O)(=O)c3cccc(F)c3)cc12` gave Anaer choline gr inactive and Anaer choline gr early -0.02.
`O=C(NCc1ccc2c(c1)OCO2)c1cccc(-c2cc(N3CCCC3)ncn2)c1` gave Anaer choline gr inactive and Anaer choline gr early -0.98.
`CCCCN(CC)c1ccc2nnc(CCc3nc(-c4ccccc4)no3)n2n1` gave Anaer choline gr inactive and Anaer choline gr early -0.62.
Screening O=S(=O)(NC1CCCC1)c1ccc(-c2nnc(C3CCC3)o2)s1 returned Anaer choline gr inactive and Anaer choline gr early 0.06.
Screening CCCCCC(=O)CC[C@@H]1[C@@H](C/C=C\CCCC(=O)OC(C)C)[C@@H](O)C[C@H]1O returned Anaer choline gr inactive and Anaer choline gr early 0.66.
Screening Cc1nc2scc(C)n2c(=O)c1NC(=O)COc1ccc(F)cc1 returned Anaer choline gr inactive and Anaer choline gr early 0.72.
Screening COc1cc(OC)c(NC(=O)Nc2cc3c(cc2N2CCCC2)n(C)c(=O)n3C)cc1Cl returned Anaer choline gr inactive and Anaer choline gr early 0.5.
For CCOc1ccc(CC(=O)NCCc2csc3nc(-c4ccccc4C)nn23)cc1 the results were Anaer choline gr inactive and Anaer choline gr early 0.42.
For CC(NC(=O)CSc1nnc(-c2ccc3c(c2)OCCO3)n1C)c1ccc2c(c1)OCCCO2 (stereo not given) the results were Anaer choline gr inactive and Anaer choline gr early 0.35.
For Cc1[nH]c(-c2nnc(C3CCC3)o2)c(C)c1S(=O)(=O)NC(C)(C)C the results were Anaer choline gr inactive and Anaer choline gr early 1.09.
CCCNC(=O)C(C)C1CCN(S(=O)(=O)c2ccc(Br)s2)CC1 (stereo not given) was read as Anaer choline gr inactive and Anaer choline gr early -0.66.
For CCCn1c(SCc2cc(=O)n3ccccc3n2)nc2c3cc(OC)ccc3n(C)c2c1=O the results were Anaer choline gr inactive and Anaer choline gr early -0.01.
Screening Cc1ccc(S(=O)(=O)N2CCC(C)CC2)cc1-c1nnc2c3ccccc3c(C)nn12 returned Anaer choline gr inactive and Anaer choline gr early -0.35.
`O=C1C(=O)N(C2CCN(C(=O)c3ccc4c(c3)OCO4)CC2)CCN1Cc1cccc(F)c1` gave Anaer choline gr inactive and Anaer choline gr early -0.31.
Screening COc1cccc(N2CCN(C(=O)C3CCN(S(=O)(=O)c4cn(C)c(C)n4)CC3)CC2)c1 returned Anaer choline gr inactive and Anaer choline gr early -2.56.
COc1ccc(CNC(=O)c2cc3c(s2)-c2c(C)nn(-c4ccccc4)c2CC3)cc1 was read as Anaer choline gr inactive and Anaer choline gr early 0.99.
For CCCc1cc(=O)[nH]c(-n2nc(C)cc2NC(=O)c2ccc(C)c(C)c2)n1 the results were Anaer choline gr inactive and Anaer choline gr early 0.46.
`O=C(Cc1c(Sc2ccccc2)[nH]c2ccccc12)NCc1cccc(F)c1` gave Anaer choline gr inactive and Anaer choline gr early 1.34.
`Cc1ccc(-n2ccn3c(=O)[nH]nc3c2=O)cc1` gave Anaer choline gr inactive and Anaer choline gr early 0.18.
Screening NS(=O)(=O)c1ccc(CCNC(=O)C2CCCN(c3nc4ccccc4[nH]3)C2)cc1 (stereo not given) returned Anaer choline gr inactive and Anaer choline gr early 0.13.
Screening CCCNC(=O)N1c2ccccc2NC2=C(C(=O)CC(C)(C)C2)C1c1ccc(F)cc1 (stereo not given) returned Anaer choline gr inactive and Anaer choline gr early 1.15.
For O=c1c(S(=O)(=O)N2CCCC2)cccn1Cc1ccc(Cl)cc1 the results were Anaer choline gr inactive and Anaer choline gr early 0.49.
For CCC(C)NS(=O)(=O)c1ccc2c(c1)CCN2C(=O)NC (stereo not given) the results were Anaer choline gr inactive and Anaer choline gr early -0.71.
Screening COc1ccccc1N(Cc1nc2nc(C)cc(=O)n2[nH]1)C(=O)COc1ccc(Cl)cc1 returned Anaer choline gr inactive and Anaer choline gr early -0.15.
For Cc1noc(NS(=O)(=O)c2ccc(N)cc2)c1C the results were Anaer choline gr inactive and Anaer choline gr early 0.25&0.18.
For Cc1nnc(NC(=O)COc2ccccc2-c2nc(-c3ccccc3C)no2)s1 the results were Anaer choline gr inactive and Anaer choline gr early -0.37.
COc1cc(OC)c(NC(=O)c2ccc(-n3cnc4cccnc43)cc2)cc1Cl was read as Anaer choline gr inactive and Anaer choline gr early 0.34.
`COc1ccc(NC(=O)N2CCN(Cc3cc(=O)n4nc(-c5ccc(OC)cc5)sc4n3)CC2)cc1` gave Anaer choline gr inactive and Anaer choline gr early 0.08.
For Cc1ccc(NC(=O)Cc2c(C)nn(-c3nc(-c4ccccc4)cs3)c2C)cc1C the results were Anaer choline gr inactive and Anaer choline gr early -0.73.
Screening Cc1cc(S(=O)(=O)[C@H]2CS(=O)(=O)C[C@@H]2NCCc2c[nH]c3ccccc23)ccc1F returned Anaer choline gr inactive and Anaer choline gr early -0.37.
CC(C)c1ccc(S(=O)(=O)N2CCN(c3nc4ccccc4n4cccc34)CC2)cc1 was read as Anaer choline gr inactive and Anaer choline gr early -1.21.
Screening CCCS(=O)(=O)c1ccc(NCCc2c[nH]c3ccccc23)nn1 returned Anaer choline gr inactive and Anaer choline gr early -1.3.
COC(=O)c1sccc1NC(=O)N1CCCN(c2nc3cc(F)ccc3n3cccc23)CC1 was read as Anaer choline gr inactive and Anaer choline gr early -1.35.
`CCOc1ccc(NC(=O)C2Sc3nnc(CC)n3NC2c2ccccc2)cc1` (stereo not given) gave Anaer choline gr inactive and Anaer choline gr early -0.81.

Reprinted from the entries so far (2 entries):
For Cc1ccc(CNC(=O)CCc2nc(N3CCCCC3)c3c(-c4ccc(F)cc4)noc3n2)cc1 the results were Anaer choline gr inactive and Anaer choline gr early 0.79.
Screening Cc1cc(C2CCCN2Cc2ccccc2O)no1 (stereo not given) returned Anaer choline gr inactive and Anaer choline gr early -1.57.

Additional entries.
CCOC(=O)CS(=O)(=O)c1cc2c(cc1NC(=O)C(C)C)n(C)c(=O)c(=O)n2C was read as Anaer choline gr inactive and Anaer choline gr early -0.32.
Screening O=C(Cc1ccc(NC(=O)N2CCSc3ncccc32)cc1)NCc1cccnc1 returned Anaer choline gr inactive and Anaer choline gr early 0.01.
For COC(=O)c1ccccc1NC(=O)N1CCN(Cc2cc(=O)n3nc(-c4cccc(F)c4)sc3n2)CC1 the results were Anaer choline gr inactive and Anaer choline gr early 0.4.
Screening CCOC(=O)c1c(C)[nH]c(C)c1S(=O)(=O)Nc1ccc(S(N)(=O)=O)cc1 returned Anaer choline gr inactive and Anaer choline gr early -1.17.
Screening CCN1c2cc(C)ccc2-n2cccc2C12CCN(C(=O)c1ccc(F)cc1)CC2 returned Anaer choline gr inactive and Anaer choline gr early 1.12.
For CC(O)c1ccc(-c2ccc(CNCc3ccc(F)cc3)o2)cc1 (stereo not given) the results were Anaer choline gr inactive and Anaer choline gr early 0.09.
For Cc1cc(C)c(/C=C2\C(=O)Nc3ccccc32)[nH]1 the results were Anaer choline gr inactive and Anaer choline gr early 0.75&-1.09&1.47.
Cn1c(SCC(=O)Nc2nnc(-c3ccccc3)s2)nnc1-c1cc2ccccc2o1 was read as Anaer choline gr inactive and Anaer choline gr early 0.
Cc1ccc(C2CCCN2C(=O)NC(C)C)cc1 (stereo not given) was read as Anaer choline gr inactive and Anaer choline gr early -0.17.
For COc1c(C)cnc2c1c(=O)n(CC(=O)Nc1ccccc1C)c(=O)n2C the results were Anaer choline gr inactive and Anaer choline gr early 1.75.
For CCN1C(=O)c2ccccc2S(=O)(=O)c2ccc(C(=O)N3CCCC3)cc21 the results were Anaer choline gr inactive and Anaer choline gr early 1.17.
For Cn1c(=O)c(-c2noc(CCC(=O)Nc3cccc(Cl)c3)n2)nn(-c2ccccc2)c1=O the results were Anaer choline gr inactive and Anaer choline gr early -0.57.
O=C(c1cnc2cc(-c3ccc(Cl)cc3)nn2c1)c1cc(F)ccc1O was read as Anaer choline gr inactive and Anaer choline gr early 1.15.
For CCOc1ccc(Nc2cc(C)nc3c(-c4ccc(F)cc4)cnn23)cc1 the results were Anaer choline gr inactive and Anaer choline gr early -1.49.
Screening CC(C)C(=O)NCc1csc(C2CCCN(C(=O)C3CC3)C2)n1 (stereo not given) returned Anaer choline gr inactive and Anaer choline gr early 0.26.
Screening COc1ccc(N2CCN(c3cc(C)nc(-n4nc(C)cc4C)n3)CC2)cc1 returned Anaer choline gr inactive and Anaer choline gr early -1.65.
COc1ccnc2c1c(=O)n(CC(=O)NCc1ccc3c(c1)OCO3)c(=O)n2C was read as Anaer choline gr inactive and Anaer choline gr early -0.97.
`CCCCOC(=O)c1cnn2c(C(F)(F)F)cc(-c3ccccc3)nc12` gave Anaer choline gr inactive and Anaer choline gr early 0.5.
For Cc1ccccc1-c1noc(-c2cccnc2N2CCOCC2)n1 the results were Anaer choline gr inactive and Anaer choline gr early -0.72.
`COc1ccccc1Nc1c(C(=O)N2CCOCC2)cnc2ccccc12` gave Anaer choline gr inactive and Anaer choline gr early -0.37.
`COc1ccc(S(=O)(=O)Nc2ccccc2SCc2cc(=O)n3cc(Cl)ccc3n2)cc1` gave Anaer choline gr inactive and Anaer choline gr early 2.13.
For O=C(Nc1ccc(F)cc1F)C1CCN(Cc2cc3ccccc3n2Cc2cccc(F)c2)CC1 the results were Anaer choline gr inactive and Anaer choline gr early 0.74.
O=c1c(-c2ccccc2)nnc2sc(-c3c[nH]c4ccccc34)nn12 was read as Anaer choline gr inactive and Anaer choline gr early 0.41.
For Cc1ccc2c(c1)NC(=O)C(C(=O)Nc1ccc(F)cc1)O2 (stereo not given) the results were Anaer choline gr inactive and Anaer choline gr early -1.05.
CN1CCN(C(=O)c2cccc(Cl)c2)c2cccnc21 was read as Anaer choline gr inactive and Anaer choline gr early -0.59.
For Cc1ccsc1C(=O)N1CCc2[nH]cnc2C12CCCCC2 the results were Anaer choline gr inactive and Anaer choline gr early -0.15.
Screening Cn1c(=O)c2c(-c3cccc(Br)c3)n(CCc3c[nH]c4ccccc34)cc2n(C)c1=O returned Anaer choline gr inactive and Anaer choline gr early -1.15.
For Cc1cc(C)cc(N2CCn3c2nc2c3c(=O)n(CC(=O)O)c(=O)n2C)c1 the results were Anaer choline gr inactive and Anaer choline gr early -0.73.
Fc1ccc(-c2nc(-c3ccc(-c4csc(C5CC5)n4)cc3)no2)cc1F was read as Anaer choline gr inactive and Anaer choline gr early -0.63.
For COC(=O)c1ccccc1NC(=O)c1nsc2ccccc12 the results were Anaer choline gr inactive and Anaer choline gr early -1.1.

7 compounds picked at random from the list so far:
CC(C)c1ccc(S(=O)(=O)N2CCN(c3nc4ccccc4n4cccc34)CC2)cc1 was read as Anaer choline gr inactive and Anaer choline gr early -1.21.
Screening COc1ccccc1N(Cc1nc2nc(C)cc(=O)n2[nH]1)C(=O)COc1ccc(Cl)cc1 returned Anaer choline gr inactive and Anaer choline gr early -0.15.
Screening CCCCCC(=O)CC[C@@H]1[C@@H](C/C=C\CCCC(=O)OC(C)C)[C@@H](O)C[C@H]1O returned Anaer choline gr inactive and Anaer choline gr early 0.66.
For Cc1cc(C)c(/C=C2\C(=O)Nc3ccccc32)[nH]1 the results were Anaer choline gr inactive and Anaer choline gr early 0.75&-1.09&1.47.
Fc1ccc(-c2nc(-c3ccc(-c4csc(C5CC5)n4)cc3)no2)cc1F was read as Anaer choline gr inactive and Anaer choline gr early -0.63.
Cc1ccc(S(=O)(=O)N2CC(C)C(=O)Nc3ccccc32)cc1 (stereo not given) was read as Anaer choline gr inactive and Anaer choline gr early -1.35.
Screening Cc1cc(C2CCCN2Cc2ccccc2O)no1 (stereo not given) returned Anaer choline gr inactive and Anaer choline gr early -1.57.

Later entries:
O=c1cc(CN2CCCC2)nc2nc(NCc3ccc(F)cc3)[nH]n12 was read as Anaer choline gr inactive and Anaer choline gr early -0.91.
`CNC(=O)c1ccc(-c2nc3cc(NS(=O)(=O)c4ccc(Br)cc4)ccc3n2C)cc1` gave Anaer choline gr inactive and Anaer choline gr early 1.1.
Screening CCc1ccccc1NC(=O)c1cc(S(=O)(=O)N2CCC(Cc3ccccc3)CC2)ccc1F returned Anaer choline gr inactive and Anaer choline gr early -0.54.
Cc1nnsc1C(=O)Nc1sc2c(c1C(=O)NCC1CCCO1)CCC2 (stereo not given) was read as Anaer choline gr inactive and Anaer choline gr early 0.39.
Screening CCC(=O)Nc1nc2c(OC)cc(NC(=O)Nc3cc(Cl)ccc3OC)cc2s1 returned Anaer choline gr inactive and Anaer choline gr early -0.36.
For c1cc(-c2nnc(CC3CCCC3)o2)ccn1 the results were Anaer choline gr inactive and Anaer choline gr early -1.29.
